Screens (PubChem)
TRPML1 agonist: human mucolipin-1 channel agonism; TRPML1-expressing cells, Ca2+ dye fluorescence, FDSS; host cell line not named in the record; reference of the full effect not given here; activation, % (concentration not given with the values); hit rate 0.12% among 410,000; in the data active = activation above about 50%; inconclusive = about 30% to 50%; inactive = below about 30%; further: 0% is about no effect; the text of the record puts the active cut at 80%
Target sequence (Q9GZU1 whole entry, looked up): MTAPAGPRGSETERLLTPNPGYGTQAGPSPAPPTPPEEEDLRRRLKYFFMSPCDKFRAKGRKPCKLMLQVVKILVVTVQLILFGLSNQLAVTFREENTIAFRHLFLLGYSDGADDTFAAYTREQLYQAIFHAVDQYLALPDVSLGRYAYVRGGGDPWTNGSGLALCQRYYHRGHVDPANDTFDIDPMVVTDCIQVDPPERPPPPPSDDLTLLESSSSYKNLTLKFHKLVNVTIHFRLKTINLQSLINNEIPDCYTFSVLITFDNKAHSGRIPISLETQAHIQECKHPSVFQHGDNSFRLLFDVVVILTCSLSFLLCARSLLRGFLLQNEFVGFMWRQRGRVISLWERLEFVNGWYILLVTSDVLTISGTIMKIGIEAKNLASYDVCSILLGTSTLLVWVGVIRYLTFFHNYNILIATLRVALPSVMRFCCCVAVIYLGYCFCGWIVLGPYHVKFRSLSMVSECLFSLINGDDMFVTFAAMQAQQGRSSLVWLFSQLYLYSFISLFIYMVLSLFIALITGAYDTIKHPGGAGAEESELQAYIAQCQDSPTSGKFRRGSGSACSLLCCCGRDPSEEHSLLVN
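In this qHTS format, compounds were pin-transferred onto Ca8-dye-loaded TRPML1-DL cells induced with Tet overnight, and intracellular Ca2+ fluorescence was recorded kinetically for 110 s after a 10 s baseline. A subsequent 4uM final 54-4 (EC80) addition followed by a second 110 s read served as the antagonist phase.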
gsp antagonist: antagonizes gsp, the McCune-Albright syndrome mutation; hit rate 0.4% among 340,000; Potency, µM (titrated, usually from 76.9 µM), without a hit: at the top dose activity change, negative = inhibition, usual class: inhibitors; gsp-mutant cells, cAMP HTRF, 30 min; control for the full effect not named in the record; AID 624288; active = falling curve of any shape with a large fitted effect; inconclusive = falling curve, mostly with a smaller effect; inactive = flat or rising curve; cell line not stated here;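 further: intracellular cAMP measured with PDE inhibitor Ro 20-1724 present during compound exposure; potency means the concentration at half of the fitted maximal effect; on the % scale 0 is the no-effect control and ±100 the full control effect; nearly all actives have a fitted effect of over 65% in size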
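Measurement of cellular cAMP by homogeneous time-resolved fluorescence following a 30 min compound exposure at 37C. The PDE inhibitor […] was present throughout; the assay buffer was DPBS with 0.05% BSA and 0.005% Tween 20.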
Menin-MLL FL inh: displaces fluorescein MLL peptide from human menin. FP activity change, % at 61.4 µM. 290,000 tested, under 10 active. Fluorescence polarization, fluorescein-MLL peptide displacement from menin; inconclusive = falling polarisation curve, or a change in total fluorescence; inactive = total fluorescence flat and polarisation flat or rising; no compound was filed as active; the % refers to the polarisation; negative = inhibition;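 further: % of control where 0% means no effect; inhibitors lower the polarisation; unlabelled MLL peptide was the positive control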
ClpP mod: qHTS Assay for Activators of ClpP | ATP-dependent Clp protease proteolytic subunit (Bacillus subtilis (strain 168)), P80244 | purified B. subtilis ClpP, FRET peptide cleavage, 20 min | Potency, µM (titrated, usually from 57.5 µM), without a hit: top-dose activity change, negative = active | hit rate 1.9% among 340,000 | AID 651965, 2013; active = well fitted falling curve with a large enough effect; inconclusive = small, poorly fitted or top-dose-only effect; inactive = no such curve, though single readings can be large or run the other way; further: potency means the concentration at half of the fitted maximal effect; the source files actives as falling curves though it sought activators and does not explain the sign; nearly all actives have a fitted effect of over 65% in size; many hits overshoot -100%
Target sequence (P80244 whole entry, looked up): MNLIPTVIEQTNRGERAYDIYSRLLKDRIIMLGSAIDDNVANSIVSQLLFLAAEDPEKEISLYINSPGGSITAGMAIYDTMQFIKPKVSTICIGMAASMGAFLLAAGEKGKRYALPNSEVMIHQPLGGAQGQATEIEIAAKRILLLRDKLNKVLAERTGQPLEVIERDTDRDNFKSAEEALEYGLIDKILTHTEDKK
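ClpP 10 microg/mL final, pH 8 Tris/KCl buffer with BSA, glycerol, Tween-20; compound pinned in; FRET-FV substrate; RT 20 min; Ex320/Em430; ΔFRET vs ADEP 5.8 microM, DMSO, no enzyme.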
gsp ag: gsp mutant agonism | hit rate 0.13% among 340,000 | gsp mutant cells, cAMP HTRF, 30 min; control for the full effect not named in the record | Potency, µM (series often up to 76.9 µM), for the others: at the highest dose activation (cAMP increase), most hits filed as activators; active = well fitted activation curve with a large enough effect; inconclusive = small, poorly fitted or top-dose-only effect, or another doubt; inactive = no such curve, though single readings can be large or run the other way; cell line not stated here;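 further: phosphodiesterase inhibitor Ro 20-1724 added with compounds to block cAMP breakdown; potency means the concentration at half of the fitted maximal effect; nearly all actives have a fitted effect of over 60% in size; about a fifth of the inactives were tested at one dose only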
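Cells stably selected in G418 were plated at 2000/well, grown 16-24 hr, then given compounds in DMSO with the PDE inhibitor […] (300 uM solution added) for 30 min at 37C; cAMP was read by HTRF.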
TRPML1 blocker: blocks the human TRPML1 channel | TRPML1-inducible cells, Ca2+ dye fluorescence, FDSS; hits give low values; inhibition of EC80 agonist-evoked calcium signal | activity change, negative = inhibition, % (concentration not given with the values) | hit rate 0.02% among 390,000; in the data active means activity change below about -50%; inconclusive means about -30% to -50%; inactive means above about -30%;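 further: stimulus is agonist 54-4 at its EC80 concentration; on the % scale 0 is the no-effect control and ±100 the full control effect; compound concentration not given in the record; the text of the record puts the active cut at -80%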
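Calcium fluorescence in TRPML1-DL cells induced overnight with Tet: a 110 s read after compound pin addition, then a 110 s antagonist read after challenge with 54-4 at 4 uM final (EC80).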
* hit, by the source's call; ? = inconclusive; . = no result given; & = joins results of further samples; [ ] = dose if it differs, or a comment.

SMILES	TRPML1 agonist	gsp antagonist	Menin-MLL FL inh	ClpP mod	gsp ag	TRPML1 blocker
COC(=O)c1cc(NS(=O)(=O)c2ccc(C(C)C)cc2)ccc1N1CCOCC1	-0.7	8%	3.8	0.4%	-8%[15.4 µM]	-4
CNC(=S)Nc1ccc(C(N)=O)cc1	0.4	15%	-0.6	.	-15%[15.4 µM]	5
O=C(c1ccccc1Oc1ccc(C(F)(F)F)cc1[N+](=O)[O-])N1CCOCC1	-0.3	5%	3.3	-1.0%	-23%	-11
Brc1ccc(-c2csc(/N=C/N3CCCC3)n2)cc1	2.7	-12%	-3.5	.	9%[15.4 µM]	64
O=C(O)C1CCCN1C1=NS(=O)(=O)c2ccccc21 (centres undefined)	-0.1	10%	.	.	8%[15.4 µM]	5
CC(C)(C)NC(=O)Cn1c(SCC(=O)NC2CC2)nc2ccccc21	-0.1	9%	3.1	.	-9%[15.4 µM]	1
Cn1nc(C(=O)OCC(=O)Nc2ccccc2[N+](=O)[O-])c2ccccc2c1=O	0.0	18%	.	1.7%	-8%	0
COC(=O)Cc1[nH]n(-c2ccccc2)c(=O)c1C=Nc1ccc(C)cc1	0.3	-19%	2.9	.	-27%[15.4 µM]	7
COc1c(-c2ccc(O)cc2)oc2cc(O)cc(O)c2c1=O	.	-2%	14	-0.1%	.	.
CCCCNC(=O)C1c2cc(OC)c(OC)cc2C(=O)N(C)C1c1cccs1 (centres undefined)	0.4	7%	-0.5	.	7%	-11
CCCOc1ccc(CNC(=O)c2cc3oc4ccccc4c3n2C)cc1	3.3	.	.	4.2%	.	26
O=C(CN1C(=O)NC2(CCc3ccccc32)C1=O)NCc1ccc(Cl)cc1 (centres undefined)	0.8	11%	.	-0.1%	?	-5
Cc1cc(S(=O)(=O)NCC2CCCO2)c(C)cc1Br (centres undefined)	2.2	3%	-1.2	-0.1%	20%	19
CCCCCCn1c(=O)n2n(c1=O)C[C@]1(OC(=O)NCc3ccc(OC)c(OC)c3)CN(S(=O)(=O)c3ccc(C)cc3)C[C@]1(O)C2	-0.7	.	.	0.9%	-93%	3
CN(C)C(CNC(=O)CSc1nnc(-c2ccco2)o1)c1ccccc1 (centres undefined)	-0.6	9%	2.6	0.5%	-8%	0
COc1cccc(/C=N/Nc2cc(C)nc(-c3ccccc3O)n2)c1O	-0.5	-27%	0.4	-2.1%	-2%	-12
CCN(CCCNC(=O)Cn1ncc2c([nH]c3ccc(C)cc32)c1=O)Cc1ccccc1	-0.4&4.2	11%	6.6	4.2%	28%	5&-6
N/C(=N\OC(=O)Cc1ccccc1[N+](=O)[O-])c1ccc(Br)cc1	3.0	-14%	-0.2	.	5%[15.4 µM]	34
COC(C(=O)Nc1ccc(S(=O)(=O)N2CCCCC2)cc1)c1ccccc1 (centres undefined)	-0.1	-4%	0.9	-2.5%	1%	-23
NC(=O)c1nc(-c2ccc(F)c(F)c2)nc2c1[nH]c(=O)n2-c1cccc(Cl)c1	1.3	.	.	-11%	.	18
O=C(CCC(=O)OCC(F)(F)C(F)F)Nc1ccc(Cl)cc1	-0.4	3%	0.5	0.8%	17%	-1
CCc1nc2ccc(C(=O)NCCCn3ccnc3)cn2c1N(C)CCC(C)C	-0.7	.	.	-0.4%	.	52
COc1ccc(NC(=O)CSc2nc(O)cc(=O)[nH]2)c(OC)c1	.	9%	20	1.0%	-2%	.
COc1ccccc1C(=O)Nc1ccc(S(=O)(=O)NC2=NCCCCC2)cc1	-0.3	2%	2.4	.	?	1
COC(=O)c1cc(CNC(=O)c2ccc(O)c(Cl)c2)ccc1OC	2.0	3%	.	-4.2%	12%	2

More compounds
SMILES	TRPML1 agonist	gsp antagonist	Menin-MLL FL inh	ClpP mod	gsp ag	TRPML1 blocker
COc1ccc(CN2CCN(c3ncnc4sc5c(c34)CCCC5)CC2)cc1F	2.9	.	.	-12%	.	-23
CC(NC(=O)COc1ccccc1)C(=O)OCC(=O)c1cc2ccccc2o1 (centres undefined)	0.0	-8%	-0.4	-2.0%	-10%	-10
Cc1ccc(OCC(=O)OCc2cc(=O)n3nc(-c4cccs4)sc3n2)cc1	-0.6	.	.	-15%	.	1
O=C(Nc1nc2ccccc2s1)C1CCCN1S(=O)(=O)c1ccc(Cl)cc1 (centres undefined)	1.5	?	0.8	-2.0%	8%	40
COc1ccc(C2CC(=O)C(C=NCC(C)C)=C(O)C2)cc1 (centres undefined)	-1.1	-4%	-0.4	3.7%	6%	-1
Cc1c(Cl)cccc1NC(=S)N(C)CCC#N	-0.6	11%	-2.2	1.0%	?	-7
Cc1ccc(C(=O)OCC(=O)NCc2cccs2)s1	-0.4	7%	.	.	8%[15.4 µM]	6
COc1ccc(/C=C2\SC(=S)N(N3C(=O)CCC3=O)C2=O)cc1O	2.6	-22%	?	.	17%[15.4 µM]	0
CC(=O)Nc1ccc(SCC(=O)OCC(=O)NC(=O)NCc2ccco2)cc1	0.3	-15%	2.6	-3.7%	-11%	24
O=C(NNC(=O)c1ccc(Cl)s1)c1csc(N2CCOCC2)n1	0.1	5%	.	-8.6%	-5%[15.4 µM]	13
Cc1ccc(C(=O)NC(=C(Cl)Cl)S(=O)(=O)c2ccccc2)cc1	1.0	-19%	0.0	-1.0%	-11%	-10
CN1/C(=C\C(=O)Nc2cccc(Cl)c2)C(C)(C)c2ccccc21	0.4	-10%	5.5	.	-1%	36
CC(C)(C)N1CC(c2nc3ccccc3n2Cc2ccccc2)CC1=O (centres undefined)	-0.2	2%	0.3	-3.7%	21%	-5
COc1ccc(N(CC(=O)NC2CCCC2)C(=O)Cn2nnc(-c3ccc(C)o3)n2)c(OC)c1	0.0	?	-1.6	.	25%[15.4 µM]	?
CCOc1cccc(NC(=O)Cc2cccs2)c1	-0.4	8%	1.8	1.1%	?	-6
CCOC(=O)C(N)CSC1CC(=O)N(c2ccc(OCC)cc2)C1=O (centres undefined)	3.5	?	-0.6	0.8%	-15%	8
CCOc1ccccc1N(CC(=O)NCC1CCCO1)C(=O)CCC(=O)Nc1cc(C)on1 (centres undefined)	-0.4	-1%	-0.2	-2.2%	7%[15.4 µM]	-10
Cn1cccc1-c1nc2ccc(NC(=O)c3ccco3)cc2[nH]1	0.2	?	-2.1	-0.4%	9%	-3
OCCOCCOc1cccc2[nH]ccc12	0.0	1%	-3.7	-1.2%	15%	10
Cc1ccc(-c2nc(-c3ccccn3)no2)cc1Cl	1.4	-2%	-4.2	-2.5%	18%[15.4 µM]	-3
CCN(C[C@H]1N[C@@](C)(C(=O)OC)[C@H]2C(=O)N(C)C(=O)[C@@H]12)S(=O)(=O)c1ccc(C)cc1	-0.5	4%	.	-2.8%	.	-7
CCN(CC)S(=O)(=O)c1cc(NC(=O)c2ccc(Br)s2)ccc1C	0.2	-28%	5.9	.	16%[15.4 µM]	17
CN1CCN(NC(=O)C2CC2)CC1	-0.8	-16%	3.7	0.5%	1%	-1
Fc1ccc(CSc2ncnc3ccccc23)cc1	1.5	1%	2.4	?	6%[15.4 µM]	7
CC(=O)Nc1ccc(OCC(O)Cn2cnc3ccccc32)cc1 (centres undefined)	-0.2	11%	-0.1	0.5%	-1%	-8

Complete entries, quoted from the list. Values in the order: TRPML1 agonist | gsp antagonist | Menin-MLL FL inh | ClpP mod | gsp ag | TRPML1 blocker
Shown for Cc1ccc(-c2nc(-c3ccccn3)no2)cc1Cl = 1.4 | -2% | -4.2 | -2.5% | 18%[15.4 µM] | -3
Shown for COc1ccccc1C(=O)Nc1ccc(S(=O)(=O)NC2=NCCCCC2)cc1 = -0.3 | 2% | 2.4 | . | ? | 1

The list continues:
SMILES	TRPML1 agonist	gsp antagonist	Menin-MLL FL inh	ClpP mod	gsp ag	TRPML1 blocker
O=C1NC2c3ccccc3C(=O)N2c2c1cnn2-c1ccccc1 (centres undefined)	0.3	10%	-2.6	-2.7%	?	4
COC(=O)C1C/C(=N\NS(=O)(=O)c2ccc(C)cc2)c2sccc2C1 (centres undefined)	0.1	5%	-0.3	-1.3%	-5%	-6
COCC(=O)Nc1nnc(SCC(=O)N2C(C)CCCC2C)s1 (centres undefined)	-1.1	5%	2.6	0.9%	-16%[15.4 µM]	1
Cc1ccccc1Nc1c([N+](=O)[O-])cncc1[N+](=O)[O-]	-0.2	8%	0.4	.	-40%[inhibitor]	-5
COc1ccc(NCc2ccccc2-c2nnc(-c3ccccc3)o2)cc1Cl	0.3	.	.	-3.9%	.	7
CCN(CC)CCOc1c(Br)ccc2c1sc1nc3n(c(=O)c12)CCC3	0.7	25%	0.9	-3.8%	-21%	8
O=C(Nc1c(Cl)ccc2nsnc12)c1ccc(Br)o1	-1.0	.	.	0.8%	-29%	-7
c1csc(Cc2nc(-c3ccc(-n4cccc4)cc3)no2)c1	-0.6	-4%	.	-12%	?	6
COc1ccc(-n2nnnc2C2CCN(S(=O)(=O)c3ccc(F)cc3Cl)CC2)cc1	0.2	.	.	0.0%	.	0
COc1ccc(N2CCN(C(=O)c3ccc(S(=O)(=O)N4CCCCCC4)cc3)CC2)cc1	2.4	6%	.	-0.1%	14%[15.4 µM]	2
O=C(c1cccc([N+](=O)[O-])c1)c1ccc2c(c1)C(=O)NC2=O	0.8	4%	2.2	.	-11%[15.4 µM]	12
COc1ccc(C(NC(=O)C2CCCCC2)c2c(O)ccc3ccccc23)cc1 (centres undefined)	0.5	-21%	8.6	25µM*	2%	8
O=c1oc2ccc3ccccc3c2cc1-c1nc2ccccc2o1	4.8	-19%	.	2.5µM*	-1%	2
CCN(c1ccccc1)S(=O)(=O)c1ccc(C(=O)N(CCCN(C)C)c2nc3c(C)cccc3s2)cc1	1.2	-1%	.	-1.3%	18%	-2
O=S(=O)(c1ccc(F)cc1)c1nc(-c2ccco2)oc1Nc1ccccc1	-0.8	-8%	6.9	-15%	-30%	35
CC(=O)N1CCN(C(=O)COC(=O)COc2c(C)cc(C)cc2C)CC1	3.7	18%	.	0.9%	-10%	4
O=C(NCCn1c(-c2ccncc2)nc2ccccc21)[C@H]1CCCN1c1nc(CN2CCCCC2)cs1	-0.3	13%	-0.5	-3.4%	10%	-23
CCOC(=O)c1csc(N)c1-c1ccc([N+](=O)[O-])cc1	0.3	-16%	-0.9	0.5%	-10%	1
COCCNC(=S)NC1CC2CCCC(C1)N2Cc1ccco1 (centres undefined)	0.7	0%	3.3	-2.5%	-11%	-1
CN(C(=O)CSc1nc2ccc(NC(=O)c3ccco3)cc2s1)c1ccccc1	-0.4	.	.	-0.3%	.	36
O=C(Cc1cn2ccsc2n1)NCc1ccccc1	-0.5	9%	-1.1	0.9%	-29%	-1
CC(CNC(=O)c1ccc(C#N)cc1)NC(=O)c1ccc(C#N)cc1 (centres undefined)	-0.9	-3%	1.3	-2.3%	-3%[15.4 µM]	-23
Cc1ccc(-c2nn(Cc3ccccc3)cc2/C=C/C(=O)O)cc1	1.3	-10%	-0.8	-1.4%	5%	7
CCCCC1CCC(C(=O)N(C)CC(=O)Nc2cccc(OC)c2)CC1 (centres undefined)	-1.4	-4%	.	0.5%	-4%	10
